Bioassay records deposited in PubChem BioAssay by National Center for Advancing Translational Sciences (NCATS).
MARV entry inh – blocks Marburg virus binding to or entry into cells | Marburg virus pseudotyped entry inhibition, cell reporter; control for the full effect not named in the record; about a third of the inactives were read at about 46 µM | Potency, µM (doses to about 37.8 µM), without a hit: at the top dose activity change, negative = inhibition, usual class: inhibitors | 1.8% of 300,000 active | AID 540276; active = well fitted inhibition curve with a large enough effect; inconclusive = small, poorly fitted or top-dose-only effect, or effect the other way; inactive = flat fitted curve, though single readings scatter; tested in HEK293 cells; about a fifth of its hits are not listed in these tables; further: on the % scale 0 is the no-effect control and ±100 the full control effect; luciferase read-out
RE007 growth inh – less growth of the S. pombe RE007 Vpr strain; S. pombe RE007 Vpr strain, BacTiter-Glo ATP luminescence, 24 h; control for the full effect not named in the record; Potency, µM (titrated, usually from 92.2 µM), inactives show at the highest dose activity change, negative = less growth; 0.21% of 360,000 active; AID 651644; active = well fitted falling curve with a large enough effect; inconclusive = small, poorly fitted or top-dose-only effect; inactive = no such curve, though single readings can be large or run the other way;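 further: on the % scale 0 is the no-effect control and ±100 the full control effect; nearly all actives have a fitted effect of over 50% in size; the assay follows cell death caused by Vpr and the record does not say whether a fall means rescue or toxicity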
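Fission yeast RE007 carrying one integrated HIV-1 vpr copy, seeded at OD 0.01 in PMG+AL medium with 23 nL pinned compound. Grown 24 h at 30 degrees; viability read by BacTiter-Glo luminescence after 5 min.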
2A StopGo – lowers the luciferase signal of an FMDV 2A StopGo reporter; Potency, µM (top dose mostly 57.9 µM), inactives show at the top dose signal change, negative = less light; human cells with a luciferase reporter of 2A StopGo recoding; control for the full effect not named in the record; 1.2% of 410,000 active; AID 1159524; active = well fitted falling curve with a large enough effect; inconclusive = small, poorly fitted or top-dose-only effect; inactive = no such curve, though single readings can be large or run the other way; tested in HEK293T cells; further: on the % scale 0 is the no-effect control and ±100 the full control effect; nearly all actives have a fitted effect of over 45% in size; luciferase light after 4 h
Cruzain Triton – cruzain (T. cruzi) inhibition with detergent | purified cruzain, Z-FR-AMC fluorescence, 0.01% Triton | Potency, µM, for inactives: max response, negative = inhibition, actives largely listed as inhibitors | 0.43% of 200,000 active; active means well fitted curve in the direction sought with a large enough effect; inconclusive means small, poorly fitted or top-dose-only effect, or another doubt; inactive means no such curve, though single readings can be large; an effect the other way counts as inactive or inconclusive;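 further: plate controls were neutral wells for no effect and buffer without enzyme for full effect; nearly all actives have a fitted effect of over 40% in size; top concentration of the series not given in the record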
Target sequence (P25779 123-467 limits assumed): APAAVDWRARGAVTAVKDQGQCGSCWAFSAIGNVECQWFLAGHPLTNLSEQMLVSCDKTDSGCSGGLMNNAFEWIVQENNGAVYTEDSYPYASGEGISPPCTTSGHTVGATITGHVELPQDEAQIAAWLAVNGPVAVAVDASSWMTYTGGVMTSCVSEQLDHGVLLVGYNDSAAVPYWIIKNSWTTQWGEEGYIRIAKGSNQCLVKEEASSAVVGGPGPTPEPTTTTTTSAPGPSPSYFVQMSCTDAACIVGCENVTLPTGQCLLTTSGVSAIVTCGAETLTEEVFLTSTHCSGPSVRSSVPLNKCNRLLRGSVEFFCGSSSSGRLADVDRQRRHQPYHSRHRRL
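Purified cruzain (1.5 nM final) was preincubated with compounds for 15 min at room temperature in 100 mM sodium acetate pH 5.5, 5 mM DTT, 0.01% Triton X-100. Reaction started with 2 uM Z-FR-AMC; AMC fluorescence change over 60 s gave activity.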
Lassa entry inh – blocks Lassa virus binding to or entry into cells. Potency, µM (titrated, usually from 37.9 µM), without a hit: at the highest dose activity change, negative = inhibition, hits mostly inhibitors. AID 540256. 1.2% of 300,000 active. Lassa virus pseudotype entry inhibition, cell reporter; control for the full effect not named in the record; active means well fitted inhibition curve with a large enough effect; inconclusive means small, poorly fitted or top-dose-only effect, or effect the other way; inactive means flat fitted curve, though single readings scatter; tested in HEK293 cells; further: on the % scale 0 is the no-effect control and ±100 the full control effect; nearly all actives have a fitted effect of over 50% in size; luciferase read-out
NS1 function inh – inhibitors of influenza NS1 protein function; 0.4% of 270,000 active; Potency, µM (titrated, usually from 46.1 µM), without a hit: top-dose activity, positive = more growth; S. cerevisiae slowed by influenza A NS1, growth recovery by OD600; AID 2326; further: actives are rising curves; nearly all actives have a fitted effect of over 50% in size
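A cell-based growth assay was used: compounds that relieve NS1-induced slow growth of budding yeast raise OD600. Assay medium was yeast nitrogen base with ammonium sulphate and -URA supplement, pH 6.0, with 2% galactose.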
Cruzain inh noDet – cruzain (T. cruzi) inhibition without detergent. P25779. 2.3% of 200,000 active. purified cruzain, Z-FR-AMC fluorescence, no detergent. Potency, µM, inactives show max response, negative = inhibition, actives largely listed as inhibitors; active means well fitted curve in the direction sought with a large enough effect; inconclusive means small, poorly fitted or top-dose-only effect, or another doubt; inactive means no such curve, though single readings can be large; an effect the other way counts as inactive or inconclusive;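 further: plate controls were enzyme without inhibitor for no effect and buffer without enzyme for full effect; nearly all actives have a fitted effect of over 40% in size; top concentration of the series not given in the record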
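Detergent-free condition (0.00005% Triton X-100) in acetate buffer pH 5.5 with DTT. 1.5 nM enzyme and compound were pre-mixed 15 min, then 2 uM Z-FR-AMC substrate added; reaction progress from fluorescence change between first and third reads (60 s).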
SARS PLpro yeast – blocks SARS-CoV papain-like protease in a yeast assay; S. cerevisiae expressing SARS-CoV PLpro, growth rescue; control for the full effect not named in the record; Potency, µM (top dose mostly 32.9 µM), for the others: top-dose activity, positive = growth rescue; 0.19% of 330,000 active; further: 0% is about no effect; nearly all actives have a fitted effect of over 55% in size; growth read by luminescence after 48 h
Numbers without * were called inactive; ? = inconclusive; nt = no result given; & = joins results of further samples; [ ] = dose if it differs, or a comment. Unless noted, the call rests on the fitted dose curve; in most records, active means well fitted rising curve with a large enough effect; inconclusive means small, poorly fitted or top-dose-only effect; inactive means no such curve, though single readings can be large or run the other way. Potency means the concentration at half of the fitted maximal effect.

SMILES | MARV entry inh | RE007 growth inh | 2A StopGo | Cruzain Triton | Lassa entry inh | NS1 function inh | Cruzain inh noDet | SARS PLpro yeast
NS(=O)(=O)c1ccc(CCNC(=O)CCc2nc3sc4c(c3c(=O)[nH]2)CCCC4)cc1 | ? | -1% | 5% | nt | -4%[46.1 µM] | nt | nt | 3%
Cc1ccccc1-n1cc(C(=O)c2cc(Cl)ccc2O)cc(C#N)c1=O | -2% | nt | 0% | -9.7% | -16% | -23% | -8% | -13%
CC1CC(c2ccccc2)n2nc(N3C(=O)c4ccccc4C3=O)nc2N1 (centres undefined) | 15% | 5% | -22% | 3.9% | 15% | 2% | 1% | -3%
COC(=O)C(C)Sc1nc2c(c(=O)n(C)c(=O)n2C)n1Cc1cccc(C)c1 (centres undefined) | 3%&3% | 10% | -25% | -4.3% | 6% | -21% | ? | -4%
O=C(NCC1CCCO1)c1nc(Cn2ccc([N+](=O)[O-])n2)no1 (centres undefined) | 7%[46.1 µM] | -1% | 4% | nt | 8%[46.1 µM] | -13% | nt | 1%
O=C(CN1CCN(c2nc(-c3ccc(F)cc3)cs2)CC1)NCc1ccc2c(c1)OCO2 | 0% | 1% | ? | -6.7% | -19%[14.3 µM] | -41% | -14% | -22%
CCOc1ccc(S(=O)(=O)N(CC(=O)NC2CCCC2)c2ccc(F)cc2)cc1 | ? | 6% | -6% | nt | -2% | nt | nt | nt
O=c1c(-c2ccccc2)c(-c2ccccc2)oc2cc(O)cc(O)c12 | -6% | ? | ? | nt | -1% | 5% | nt | -8%
CC1CCN(S(=O)(=O)c2ccc(NC(=O)CN3CCCCCC3)cc2)CC1 | ? | 1% | -10% | nt | ? | 0% | nt | 2%
Cc1cc(-c2ccc(S(=O)(=O)NCc3ccc(F)cc3)cc2)on1 | -20%[46.1 µM] | 11% | 23% | nt | -28%[46.1 µM] | -3% | nt | 3%
CC(=O)NCCC1CCN(C(=O)c2cc(COc3ccc(C)nc3)on2)CC1 | 1%[46.1 µM] | -8% | -21% | nt | -8%[46.1 µM] | 3% | nt | -3%
CCOc1ccc(NC(=O)Cn2cc(C(=O)c3ccc(C)cc3)c(=O)c3cc4c(cc32)OCCO4)cc1 | 8%[46.1 µM] | nt | 22% | 0.6% | -19%[46.1 µM] | nt | 1% | nt
Cc1ccc(S(=O)(=O)Nc2ccc3cn[nH]c3c2)cc1C | 0% | 9% | 26% | nt | -11% | nt | nt | -2%
Cc1c(NS(=O)(=O)c2ccc(NC3CCCC3)c([N+](=O)[O-])c2)c(=O)n(-c2ccccc2)n1C | 8% | 3% | -25% | -3.6% | 11% | -2% | -7% | -21%
Cc1sc2ncnc(N3CCCCC3)c2c1C | -8% | -2% | ? | 3.9% | -3% | -46% | -2% | 7%

Brought forward from above: 5 entries, followed by the next part.
SMILES | MARV entry inh | RE007 growth inh | 2A StopGo | Cruzain Triton | Lassa entry inh | NS1 function inh | Cruzain inh noDet | SARS PLpro yeast
CC(=O)NCCC1CCN(C(=O)c2cc(COc3ccc(C)nc3)on2)CC1 | 1%[46.1 µM] | -8% | -21% | nt | -8%[46.1 µM] | 3% | nt | -3%
CCOc1ccc(NC(=O)Cn2cc(C(=O)c3ccc(C)cc3)c(=O)c3cc4c(cc32)OCCO4)cc1 | 8%[46.1 µM] | nt | 22% | 0.6% | -19%[46.1 µM] | nt | 1% | nt
Cc1ccc(S(=O)(=O)Nc2ccc3cn[nH]c3c2)cc1C | 0% | 9% | 26% | nt | -11% | nt | nt | -2%
Cc1c(NS(=O)(=O)c2ccc(NC3CCCC3)c([N+](=O)[O-])c2)c(=O)n(-c2ccccc2)n1C | 8% | 3% | -25% | -3.6% | 11% | -2% | -7% | -21%
Cc1sc2ncnc(N3CCCCC3)c2c1C | -8% | -2% | ? | 3.9% | -3% | -46% | -2% | 7%
Cc1cc(C)nc(N2CCCC(C(=O)NC(C)C)C2)n1 (centres undefined) | nt | 7% | 2% | nt | nt | -2% | nt | -1%
CCCOc1ccc(C(=O)C(c2ccccc2)N2CCOCC2)cc1 (centres undefined) | -13% | -10% | 14% | -4.9% | ? | -77% | 10% | -11%
CC(CCc1ccccc1)NC(=O)C(=O)Nc1ccccc1 (centres undefined) | ? | -30% | -6% | 0.6% | -16% | 14% | 1% | 8%
COc1ccc(S(=O)(=O)N2CCC(C(=O)N[C@H](C(=O)NC3CCCC3)C(C)C)CC2)cc1 | 8%[46.1 µM] | 5% | 27% | nt | 9%[46.1 µM] | 1% | nt | -2%
FC(F)(F)c1cccc(CN2CCSCC2)c1 | ? | -6% | 1% | nt | ? | 10% | nt | -11%
COc1ccccc1N(CC(=O)Nc1ccccc1C(F)(F)F)S(=O)(=O)c1ccc(C)cc1 | ? | nt | -13% | -6.3% | -20%[46.1 µM] | nt | 3% | nt
O=C(NCCc1nc2ccccc2[nH]1)/C(=C/c1ccc2c(c1)OCO2)NC(=O)c1ccccc1Cl | ? | -4% | -20% | -23% | -5% | 17% | 6% | 2%
O=C1CCC(C(=O)N2CCOCC2)CN1Cc1cccc(C(F)(F)F)c1 (centres undefined) | 5%[46.1 µM] | -5% | -5% | nt | 34%[46.1 µM] | -4% | nt | 8%
CC(C)(C)NC(=O)c1oc2ccccc2c1NC(=O)c1ccc(F)cc1 | nt | nt | -23% | -2.5% | -5%[46.1 µM] | nt | 10% | nt
CCNC(COC(=O)c1ccc([N+](=O)[O-])cc1)C1CCCCC1 (centres undefined) | 20% | -8% | -6% | nt | 12%[46.1 µM] | nt | nt | nt
O=C(O)Cc1ccc(NC(=O)C2CCCCC2C(=O)O)cc1 (centres undefined) | -2% | -1% | -1% | 2.4% | ? | -9% | -1% | -6%
O=C(O)c1ccc(N=Nc2c(O)[nH]c3ccccc23)cc1 | 1.8µM* | ? | ? | nt | 5µM* | 3% | nt | 0%
Cc1cccc(-c2cc(C(=O)Nc3sc(C)c(C)c3C(N)=O)c3ccccc3n2)c1 | ? | -21% | 0% | -0.1% | -23% | 16% | ? | 5%
Cc1cccc(N/C=C/C(=O)c2cccs2)c1C | ? | -15% | -50% | -9.7% | ? | -10% | -12% | -22%
COc1ccc(/C=N/NC(=O)c2ccc(NC(=O)c3ccccc3Br)cc2)cc1 | -26% | 1% | -9% | -1.7% | 18µM* | -3% | ? | -7%
CCn1c(C)c(P(=O)(N2CCOCC2)N2CCOCC2)c2ccccc21 | 9%[46.1 µM] | 7% | -3% | nt | 2% | 1% | nt | 6%
O=c1[nH]c(/C=C/c2cccc([N+](=O)[O-])c2)c([N+](=O)[O-])c(=O)[nH]1 | -19% | 1% | -21% | nt | 1% | 15% | nt | 9%
Cc1ccccc1Nc1c(-c2cccnc2)nc2ccccn12 | nt | 3% | -27% | nt | nt | -6% | nt | 1%
Cc1nnc(SCC(=O)N2CCCC2)n1-c1ccc(F)cc1 | -17%[46.1 µM] | -19% | ? | nt | 14% | nt | nt | nt
CCc1ccc(-c2nc(SCC(=O)NC3CCCC3)n[nH]2)cc1 | ? | -10% | ? | nt | ? | 1% | nt | ?
CC1CC(C)CN(C(=O)C2CCN(S(=O)(=O)c3cccc4cccnc34)CC2)C1 (centres undefined) | nt | 11% | -25% | nt | nt | 3% | nt | -1%
Cc1ccc(NC(=O)CSc2nnc(C(F)(F)F)n2C)cc1[N+](=O)[O-] | -1% | -8% | 17% | -3.4% | 2% | -1% | 5% | -6%
CC(C)Cc1ccc(C(C)CC2=CCC(CN(C)C)C2=O)cc1 (centres undefined) | ? | 0% | ? | nt | ? | nt | nt | nt
CCOC(=O)C1=C(CN2CCc3ccccc32)NC(=O)NC1c1cccc([N+](=O)[O-])c1 (centres undefined) | ? | -13% | ? | -3.1% | 6% | 16% | -29% | 1%
CCC(c1nnnn1C(C)(C)C)N(CCOC)Cc1cc2cccc(C)c2n2nnnc12 (centres undefined) | nt | nt | nt | 5.8% | nt | 2% | 0% | 2%
O=C1CN(C(=O)/C=C/c2ccc(Cl)cc2Cl)CCN1 | ? | 6% | 0% | nt | 2%[46.1 µM] | nt | nt | 2%
COc1ccc(C2CCCN2C(=S)Nc2cccc(Cl)c2C)cc1OC (centres undefined) | ? | 6% | -17% | nt | -6%[46.1 µM] | nt | nt | 6%
COc1ccc(NC(=O)c2oc3ccccc3c2NC(=O)c2cc(=O)c3ccccc3o2)cc1 | -3%[46.1 µM] | nt | ? | -1.1% | 29%[46.1 µM] | nt | 7% | nt
CCC(=O)Nc1cc2c(cc1C(=O)c1ccccc1)OCCO2 | -28%[46.1 µM] | 17% | -7% | 1.5% | -11% | 7% | -8% | 0%
CSc1ccc(CN2CCN(C(=O)c3ccncc3)CC2)cc1 | ? | 4% | -16% | nt | ? | -9% | nt | -1%
COc1ccccc1NC(=O)Nc1nnc(-c2ccco2)s1 | 0% | nt | nt | 4.1% | nt | 10% | 2% | 2%
COc1ccc(N(CC(=O)N2CCCCCC2)S(=O)(=O)c2ccccc2)cc1 | -2%[46.1 µM] | 1% | 68%[activator] | nt | -16% | -10% | nt | 6%
CC(=O)Nc1ccc(NC(=O)COc2ccc(Br)cc2C)cc1 | -26% | -8% | -6% | 2.7% | 8% | 8% | 0% | 14%
O=C(O)c1ccc(S(=O)(=O)N2CCC(c3nc(-c4ccccc4Cl)no3)CC2)cc1 | 4% | -18% | -9% | -8.7% | -5% | -4% | 16% | 12%
CCCc1nn(C)c2c1C(c1cccnc1)C(C#N)=C(N)O2 (centres undefined) | -4% | -8% | -16% | 2.9% | 3% | -2% | -9% | 11%
COc1ccc(NS(=O)(=O)c2csc(C(=O)Nc3ccccc3)c2)cc1 | -21%[46.1 µM] | -9% | 0% | nt | ? | 0% | nt | 0%
Cc1ccccc1NC(=O)N1CCCC(c2nc(-c3ccc(F)cc3)no2)C1 (centres undefined) | 5% | 1% | -7% | 9.2% | -20% | -34% | 3% | 8%
